Bioassay records as filed in PubChem.
Ba CapD inh = blocks the Bacillus anthracis CapD enzyme; purified CapD enzyme, fluorescence intensity read-out; active compounds read low; some hits fall short of the stated cut; z-score (concentration not given with the values); 0.23% of 140,000 active; AID 492967;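 active = z-score under -4 in either of two replicates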;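 note: stock transfer was 100 nL into about 40 µL; score is relative to mean and spread of the plate; one replicate is shown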
AID504770 = growth inhibitors of E. coli YBA685 in a screen for V. cholerae RctB (chromosome II replication) inhibitors; 0.27% of 130,000 active; AID 504770; E. coli YBA685 rctB-dependent plasmid, OD600 growth, 3 h; active compounds read low; z-score (test concentration not listed);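 active = z-score under -2 on both plates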;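 note: wells of about 30 µL received 100 nL stock; score is relative to mean and SD of the test wells; the first replicate is given; strong numbers were not always called active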
Numbers without * were called inactive; x = not tested or not shown; ! = repeats disagree. This is a random part of the collection. Share with any hit: about 0.37%.

cpd	SMILES	Ba CapD inh	AID504770
1	COC(=O)c1sc2nc3c(c(C(F)(F)F)c2c1N)CN(C(C)=O)CC3	-0.56	-0.8
2	CC(=O)N1CC(=O)N=C1SCC(=O)Nc1nc2c(s1)CCCC2	x	-0.2
3	COC(=O)c1ccc(Oc2nc3c(c(=O)n(C)c(=O)n3C)n2Cc2ccccc2)cc1	-0.715	0
4	CCCCN(C)C1=Nc2cccc3cccc1c23	x	-0.2
5	CCOC(=O)C1CCCN(C(=O)CCCC(=O)n2ncc3cc(C)ccc32)C1 (stereo not given)	0.35	-1
6	Cc1ccccc1S(=O)(=O)/N=C(\N)c1ccccc1	2.91	0.5
7	CC(O)Cn1c(=N)n(Cc2ccccc2)c2ccccc21 (stereo not given)	-0.2	-0.7
8	O=C1OC(c2ccccc2)=N/C1=C\C=C\c1ccco1	x	-0.8
9	O=C(CC1OC(=O)c2ccccc21)c1ccc(Cl)s1 (stereo not given)	-2.25	-0.2
10	Cc1cccc(C)c1NC(=O)COC(=O)c1cc(Cl)cc(Cl)c1	0.13	-0.05
11	CCOC(=O)c1[nH]c2ccc(OC)cc2c1NC(=O)CNc1nc(C)c(C)s1	23	x
12	CCc1ccc(NC(=O)Cn2nnnc2N)cc1	x	-1
13	Fc1cccc(Nc2nc(-c3ccccc3)no2)c1	-0.5	0.25
14	CN(C)S(=O)(=O)c1ccc(N2CCCC2)c(C(=O)NC23CC4CC(CC(C4)C2)C3)c1	x	-0.35
15	CCCS(=O)(=O)c1c(S(=O)(=O)CCC)c2c(N)cccn2c1C(=O)c1ccc(C)cc1C	-0.79	x
16	COC(=O)C1=C(C)NC2=C(C(=O)CC(c3ccc(N(C)C)cc3)C2)C1c1ccco1 (stereo not given)	x	0
17	Cn1c(=O)c2c(n(C)c1=O)=NC1(CCCCC1)ON=2	x	-0.3
18	CC(C)(C)/C(COc1ccccc1[N+](=O)[O-])=N\OC(=O)NC1CCCCC1	-0.48	x
19	O=C(CSc1ncnc2sc3c(c12)CCCC3)N/N=C/c1cccs1	-0.595	-0.5
20	COc1cc2c3nc4n(c(=O)c3n(CC(=O)N3CCCCC3C)c2cc1OC)CCS4 (stereo not given)	x	-0.3

Ordered by formula weight (smallest number first): 3 of the compounds above.
cpd	SMILES	Ba CapD inh	AID504770
7	CC(O)Cn1c(=N)n(Cc2ccccc2)c2ccccc21 (stereo not given)	-0.2	-0.7
9	O=C(CC1OC(=O)c2ccccc21)c1ccc(Cl)s1 (stereo not given)	-2.25	-0.2
16	COC(=O)C1=C(C)NC2=C(C(=O)CC(c3ccc(N(C)C)cc3)C2)C1c1ccco1 (stereo not given)	x	0

(list continues)
cpd	SMILES	Ba CapD inh	AID504770
21	CCN1c2ccccc2NC2=C(C(=O)CC(C)(C)C2)C1c1ccccc1 (stereo not given)	-1.06	1.85
22	Cc1ccc(C(=O)Nc2sc3c(c2C(=O)O)CCCC3)o1	0.19	-0.25
23	COc1ccc(-c2nnc(SC3CCOC3=O)n2-c2ccccc2)cc1 (stereo not given)	x	0.6
24	O=C1C(=Cc2ccc(F)cc2)C(=O)c2ccccc21	-0.705	-0.25
25	N#Cc1ccc(C(=O)N2CC=C(c3ccccc3)CC2)cc1	x	0.2
26	CC(=O)Nc1ccc(Oc2cccnc2)nc1	1.07	0.5
27	COc1cc(C(=O)NC2CCS(=O)(=O)C2)cc(OC)c1OC (stereo not given)	0.22	-0.45
28	NC(=O)CSc1nc2c(c(C(F)(F)F)n1)CCc1ccccc1-2	-0.325	-0.7
29	COc1cc(-c2cc(C(F)(F)F)n3ncc(C(=O)NCc4cccs4)c3n2)cc(OC)c1OC	-1.27	x
30	Cc1cc(C)cc(NC(=O)COC(=O)C2CCN(c3ccc(C(F)(F)F)cn3)CC2)c1	x	0.1
31	Cn1c(CSc2nc3ncnc(N)c3[nH]2)nc2ccccc21	0.385	0.1
32	N#CCSc1nc2c(cc1C#N)CCCCC2	x	2
33	COc1ccc2cc3c(NC(=O)Cc4cccc(C(F)(F)F)c4)n[nH]c3nc2c1	1.44	-1.75
34	COc1ccc(-c2nnc(Nc3cccc(C(F)(F)F)c3)c3ccccc23)cc1	-0.17	0.1
35	O=C(c1cc2nc(-c3ccco3)cc(C(F)(F)F)n2n1)N1CCCc2ccccc21	x	1.05
36	N#Cc1c(/N=C/N2CCCC2)sc2c1CCCCC2	-0.575	0
37	Cc1csc(NC(=O)C(F)(F)F)c1C(N)=O	-0.785	-1.25
38	N#Cc1ccc(-c2cccnc2)n(CC(=O)NC2CCCCC2)c1=O	x	-0.7
39	Cc1nc2c3ccccc3n3c(CCCC(=O)NC(C)C)nnc3n2n1	-0.505	-0.85
40	CCCc1cc(C(=O)NCCc2ccc(OC)c(OC)c2)no1	-0.29	-0.4
41	O=C(CSc1nc2ccccc2o1)NC(=O)CSc1nc2ccccc2o1	0.305	0.45
42	O=C(Nc1ccc2c(c1)OCCO2)C1CC1	-0.575	0.1
43	O=C(COC(=O)Cc1cn2ccsc2n1)Nc1nc2ccccc2s1	x	0.2
44	CCCN(CCC)S(=O)(=O)c1ccc(C(=O)NCC(=O)O)cc1	-0.285	x
45	COC(=O)c1sccc1NC(=O)c1csc2ccccc12	0.25	0.35
46	N=c1ncn(CC(O)CO)c2nc(Br)[nH]c12 (stereo not given)	0.025	0.05
47	COc1ccc(-c2nn(-c3ccccc3)cc2C(=O)N2CCOCC2)cc1	x	-0.85
48	CN1CCC23c4ccccc4NC1C21CCN(C)C3Nc2ccccc21	0	x
49	CCC(C)(C)NC(=O)c1ccc(S(=O)(=O)N2CCCC2)cc1	-0.89	0.85
50	CCOC(=O)Cc1csc(NC(=O)c2ccc3ncsc3c2)n1	-0.805	0.85
51	O=C(CC1OCCN(Cc2ccccc2)C1=O)Nc1cccc(Cl)c1 (stereo not given)	-0.385	0.2
52	CCn1cc(C(=O)N2CCN(C)CC2)c(=O)c2cc(S(=O)(=O)N(C)C)ccc21	0.075	-0.25
53	CCC(Sc1nc2c(c(=O)[nH]1)CCCC2)C(=O)Nc1ccccc1OC (stereo not given)	-0.04	-1.5
54	O=C(OCC1CCCCN1Cc1cc2c(cc1Cl)OCO2)N1CCN(c2ccc(C(F)(F)F)cc2)CC1 (stereo not given)	-0.15	x
55	COc1cccc(-c2cn3c(n2)sc2cc(C(=O)NCC4CCCO4)ccc23)c1 (stereo not given)	19.7	0.65
56	CC(C)Cc1ccc(C#N)c(SCC(=O)c2ccccc2)n1	-0.035	0.95
57	O=C(c1ccccc1[N+](=O)[O-])N1N=C(C(F)(F)F)CC1(O)c1cccnc1 (stereo not given)	-0.415	x
58	CCCn1c(=O)c2oc(C)cc2n(-c2ccccc2C)c1=O	0.585	0.35
59	Cc1cc(C)cc(NC(=O)C/C(N)=N/O)c1	-0.45	-0.9
60	Cc1cc(C(=O)CSc2nc(N)cc(=O)[nH]2)c(C)n1C	x	-0.8
61	CCN(CC)S(=O)(=O)c1ccc(/C=C/C(=O)OCc2nnc(-c3ccccc3)o2)cc1	x	0.15
62	OC1CC(c2ccccc2)NC2(CCCC2)C1 (stereo not given)	0.055	x
63	N#Cc1c(N)n(-c2ccc(C(F)(F)F)cc2)c2nc3ccccc3nc12	94.3	2.25
64	C=CCc1c(C)[nH]c(=S)[nH]c1=O	-0.275	-0.65
65	CN(C)/C=N/N=C(\Cc1nc2ccccc2[nH]1)c1ccccc1	x	-0.95
66	CCOc1ccc(S(=O)(=O)N(CC)CC(=O)NCC2CCCO2)cc1 (stereo not given)	x	2.05
67	CN1CC=C(/C=C/c2ccc(N3CCCCC3)cc2)CC1	x	1.95
68	COCc1cc(=O)[nH]c(SC2CC(=O)N(c3ccc(N4CCOCC4)cc3)C2=O)n1 (stereo not given)	-0.33	x
69	COC(=O)Cc1nc(N2CCN(c3ccccc3)CC2)c2c(C)c(C)sc2n1	0.18	x
70	Cn1nc(C(=O)NCCc2ccsc2)c2c1-c1ccccc1SC2	-0.1	1.5
71	CCC(=O)O[C@]1(C(=O)CCl)[C@@H](C)CC2C3CCC4=CC(=O)C=C[C@]4(C)[C@@]3(F)[C@@H](O)C[C@@]21C (stereo not given in full)	-0.165	-0.55
72	CC(=O)Oc1ccc(C(=O)Nc2cc(-c3nc4ccccc4[nH]3)ccc2C)cc1	0.09	-0.35
73	CC(C)NC(=O)c1ccc(S(=O)(=O)N2CCCCCC2)cc1	0.665	1.1
74	CC1(C)CC(=O)OC(c2ccccc2)(c2ccccc2)C1	0.91	0.25
75	O=C(N/N=C/c1ccncc1)N/N=C/c1ccncc1	-0.33	x
76	Cc1nc(-c2ccccc2Cl)cs1	-0.58	-2.3
77	N#Cc1sc(/C=C/Nc2cccc(C(F)(F)F)c2)nc1C(F)(F)F	0.22	x
78	O=S(=O)(/N=C(/Nc1cc(N2CCOCC2)ncn1)c1ccccc1)c1ccccc1	0.25	0.65
79	CN=C(Cl)c1cccs1	x	-0.65
80	CCCn1c(N)c(C(=O)CSc2nnc(-c3ccccc3)o2)c(=O)[nH]c1=O	x	0.9

Following part.
cpd	SMILES	Ba CapD inh	AID504770
81	COc1ccc2cc(CCNC(=O)c3ccco3)c(=O)[nH]c2c1	23.1	-0.45
82	Cc1cc2c3c([nH]c2cc1S(=O)(=O)NCc1ccco1)CC(C)(C)CC3=O	-0.09	0.1
83	CN(C)c1ccc(NC(=O)c2sc(SCC(=O)Nc3nccs3)nc2N)cc1	-0.125	x
84	Cc1cc(=O)c2cccc(C)c2[nH]1	0.9	-0.75
85	C=CCN1C(=O)/C(=C\c2cccc(OC(=O)c3ccco3)c2)SC1=S	-0.24	1.55
86	O=c1cc(CSc2nc(NCCc3ccccc3)c3ccccc3n2)nc2ccc(Cl)cn12	0.66	x
87	O=C(O)c1ccccc1C(=O)N(Cc1cccnc1)Cc1ccc(Cl)cc1Cl	-1.25	0.05
88	COc1ccccc1C(=O)NC(=O)CSc1nnnn1C	x	0.05
89	C1=NCCCC12CCCCC2	x	-0.7
90	Cc1ccc2cccc(OC(=O)c3ccc(OCc4c(C)noc4C)cc3)c2n1	x	3.3
91	CC(=O)N1NC(=Nc2ccccc2)SC1(C)C	x	-0.6
92	N#Cc1c(N)cc(N)[nH]c1=S	x	-0.8
93	Cc1ccc(S(=O)(=O)N2CCC(=O)CC2)cc1	0.185	-0.4
94	CCOC(=O)c1sc(SCc2ccccc2)c(S(=O)(=O)C(C)C)c1N	-0.775	1
95	CCc1ccc(N2C(=O)CN(CC(=O)OC)C2=S)cc1	0.685	-0.2
96	CCN(CC)c1ncnc2c1oc1ccccc12	0.93	x
97	CCOC(=O)C1(C)C=C(Nc2ccccc2)C(=O)N1c1ccccc1 (stereo not given)	-0.245	x
98	Cc1ccc(/C=C/c2onc3c(=O)n(C)nc(C)c23)cc1	0.41	-0.75
99	CC(=O)N=c1scc(-c2ccccc2)n1-c1ccc(Cl)cc1	-0.93	-0.4
100	O=C(Nc1cccc2ccccc12)OCC(F)(F)F	0.95	-0.85

Compound profiles, from the list above. Values in the order: Ba CapD inh	AID504770
CN(C)c1ccc(NC(=O)c2sc(SCC(=O)Nc3nccs3)nc2N)cc1 is listed with -0.125	x
CCOC(=O)C1(C)C=C(Nc2ccccc2)C(=O)N1c1ccccc1 (stereo not given) is listed with -0.245	x
C1=NCCCC12CCCCC2 is listed with x	-0.7
CC(=O)N1NC(=Nc2ccccc2)SC1(C)C is listed with x	-0.6

Next compounds
cpd	SMILES	Ba CapD inh	AID504770
101	Cc1cc(C)nc(Nc2n[nH]c(Cc3ccccc3)n2)n1	-0.735	-0.5
102	CCCCc1nc(SCC(=O)Nc2ncccn2)n[nH]1	-0.04	-1.15
103	CC1=C(C(=O)OCC2CCCO2)C(c2coc3ccccc3c2=O)C2=C(CC(C)(C)CC2=O)N1 (stereo not given)	0.305	x
104	COc1cc(-c2nc3c4ccccc4c4ccccc4c3[nH]2)cc(OC)c1OC	40.7	x
105	O=C(CCN1C(=O)/C(=C2\SC(=S)N(CCC(=O)Nc3nccs3)C2=O)SC1=S)Nc1nccs1	-0.015	x
106	Cc1ccc(S(=O)(=O)CC(=O)Nc2ccc(F)c(F)c2F)cc1	-0.07	1.35
107	CCOC(=O)C1CCCn2c1nc1cc(-c3ccc(OC)cc3)sc1c2=O (stereo not given)	-0.345	x
108	CO/N=C(/C(=O)N[C@@H]1C(=O)N2C(C(=O)O)=C(CSc3nc(=O)c(O)nn3C)CS[C@H]12)c1csc(N)n1	x	-4.8*!
109	CCN(C(=O)c1ccc2c(c1)CCO2)c1cccc2ccccc12	0.925	-0.05
110	CC(C)N1C(=O)/C(=C\c2cccs2)SC1=S	-0.61	-0.35
111	CCOC(=O)Cc1nnc2c(Nc3ccccc3C)nc3nonc3n12	-0.19	x
112	N/C(=N\O)c1ccc(OCc2ccccc2F)cc1	-0.775	2.6
113	CN(C)CCS(=O)c1ccccc1 (stereo not given)	-0.63	-0.4
114	CCOC(=O)c1ccc(CC2SC(=Nc3ccc(CC)cc3)NC2=O)cc1 (stereo not given)	-0.255	-0.75
115	Cc1ccc(C23CC4CC(CC(C(=O)NC5C6CC7CC(C6)CC5C7)(C4)C2)C3)cc1 (stereo not given)	-0.11	x
116	O=C(Nc1ccc(Cl)cc1)c1cc([N+](=O)[O-])ccc1N1CCCCC1	-0.53	x
117	CC1(C)CC(=O)C=C(NC2CC(C)(C)NC(C)(C)C2)C1	-0.18	x
118	CCOc1ccccc1NC(=O)c1cc(S(=O)(=O)N2CCN(c3cccc(Cl)c3)CC2)ccc1F	0.035	x
119	CCOC(=O)N1CCC(Nc2nc(OC)nc(OC)n2)CC1	-0.545	-0.45
120	Cc1ccc(-c2cnc(SCC(=O)N3CCCC3=O)n2C)cc1	x	2
121	c1ccc(CSc2nncn3c2cc2sccc23)cc1	0.36	-0.1
122	OC[C@H]1O[C@@H](Oc2c[nH]c3ccc(Br)c(Cl)c23)[C@H](O)[C@@H](O)[C@H]1O	0.01	0
123	CCOC(=O)CSc1cc(C)c(Cl)cc1C	-0.28	1.2
